# CapD inh – blocks the Bacillus anthracis CapD enzyme; purified CapD enzyme, fluorescence intensity read-out; active compounds read low; some hits fall short of the stated cut; z-score (test concentration not listed); AID 492967; 140,000 tested, 0.23% active;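 active = z-score under -4 in either of two replicates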;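 note: stock transfer was 100 nL into about 40 µL; score is relative to mean and spread of the plate; one replicate is shown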
# AID504770 – growth inhibitors of E. coli YBA685 in a screen for V. cholerae RctB (chromosome II replication) inhibitors; E. coli YBA685 rctB-dependent plasmid, OD600 growth, 3 h; active compounds read low; z-score (test concentration not listed); 130,000 tested, 0.27% active; AID 504770;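 active = z-score under -2 on both plates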;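 note: wells of about 30 µL received 100 nL stock; score is relative to mean and SD of the test wells; the first replicate is given; strong numbers were not always called active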
# Active calls of the source: *; . = not tested or not shown; & = joins results of further samples.
SMILES,CapD inh,AID504770
O=C(O)CN(Cc1ccccc1)S(=O)(=O)/C=C/c1ccccc1,.,-0.5
CSc1ccc(CN(C)CC(=O)NCc2ccccc2)cc1,.,-1.1
C=CCn1cn[nH]c1=S,.,0
COc1ccc2c(CCNC(=O)N(C)Cc3cccnc3)c[nH]c2c1,-1.01,.
C=CCn1ccn(-c2cccc(Cl)c2)c(=O)c1=O,.,-0.55
C[N+](C)(C)CC#CCN1CCCC1=O,0.195,.
Oc1ccccc1N1CCN(C(=S)NCCN2CCOCC2)CC1,.,-0.55
COC(=O)C(C(=O)OC)C(Nc1ccccc1)c1ccccc1 (configuration not stated),-7.08*,-0.1
CSc1nnnn1-c1ccc(I)cc1,0.75,0.6
O=C(c1ccc(F)cc1)c1cc2ccc(O)cc2oc1=O,-6.37*,1.15
COc1ccc(C2CC(C(F)(F)F)n3nc(C(=O)NCCCN4CCOCC4)c(Cl)c3N2)cc1OC (configuration not stated),-0.28,.
CC(C)(C)NC(=O)CSc1nc2ccc(NC(=O)c3ccccc3F)cc2s1,-0.41,.
Cc1[nH]c2ccccc2c1C=C1C(=O)OC2(CCCC2)OC1=O,-3.62,0.3
CCOC(=O)Nc1ccc(C)cc1C,-1.01,-0.8
COC(=O)c1ccc(-c2ccc(/C=C3/C(=O)N(C)C(=O)C(C#N)=C3C)o2)cc1,0.89,-0.1
CCOC(=O)c1c(NC(=O)c2cccc(F)c2)sc(C(=O)Nc2cc(C(F)(F)F)ccc2Cl)c1C,-0.455,.
CCOc1cnc(C(=O)NN=C(N)N)o1,.,-0.55
CSC(=C(C#N)C#N)N1CCN(c2ccccc2)CC1,.,-0.3
CC1=NN(c2ccccc2)C(=O)/C1=C\c1cn(CCC(=O)O)nc1-c1cc2ccccc2o1,.,0.9
CC(OC(=O)COc1cccc(C(F)(F)F)c1)C(N)=O (configuration not stated),.,-0.05
CC(C)Cn1c(=O)c2ccccc2n2c(CCC(=O)NCCCN3CCN(c4ccccc4F)CC3)nnc12,0.335,0.05
CCc1ccccc1Nc1nc(N)nc(CO/C(=C(\C#N)c2nnc3n2CCCCC3)C(F)(F)F)n1,.,-0.35
Fc1cccc(F)c1C=Nc1cccnc1Cl,-0.385,-0.75
CNc1ccc(Cl)cc1C(=O)NCCc1ccc(OC)c(OC)c1,101,-0.2
CCN(CC)S(=O)(=O)c1c(C)nn(S(=O)(=O)c2ccccc2)c1C,.,0.15

# Quoted at random: three records from the list
SMILES,CapD inh,AID504770
CCc1ccccc1Nc1nc(N)nc(CO/C(=C(\C#N)c2nnc3n2CCCCC3)C(F)(F)F)n1,.,-0.35
C[N+](C)(C)CC#CCN1CCCC1=O,0.195,.
Oc1ccccc1N1CCN(C(=S)NCCN2CCOCC2)CC1,.,-0.55

# Carrying on:
SMILES,CapD inh,AID504770
CCN1C(=O)/C(=C2\SC(N3CCCCC3)=NC2=O)c2ccccc21,-0.855,-0.8
CN(C(=O)CSc1nnnn1C)C1CCCCC1,.,-0.5
CCOC(=O)c1cc(NC(=O)Nc2cc(C)ccc2C)c(C)nc1C,-0.005,0.55
c1ccc2sc(-c3ccc(CNCCCn4ccnc4)o3)nc2c1,.,-0.45
CS(=O)(=O)N1CCCC(C(=O)NCc2cccnc2)C1 (configuration not stated),-0.5,2.2
COCCn1c(=NC(=O)c2ccccc2)sc2cc(OC)ccc21,.,-0.6
NC(=O)c1c(NC(=O)CCOc2ccccc2)sc2c1CCCC2,1.21,1
CCn1c(CNc2ccc(C)cc2)nnc1SCc1ccccc1,.,1.9
COc1ccc(Cn2c(-c3ccc(Cl)nc3)nc3ccccc32)cc1,3.75,.
O=C(C1Cc2ccccc2CN1S(=O)(=O)c1ccc2c(c1)OCCO2)N1CCCC1 (configuration not stated),.,-0.15
Cc1cccc(NC(=O)Nc2cccc(C)c2)c1,0.575,2.6
CCOc1ccccc1N/C(SCc1ccc(C)cc1C)=C(/C#N)C(=O)NCc1ccccc1,-0.29,.
N#C/C(=C\c1ccc(Cl)cc1Cl)c1nc(-c2cc3c(ccc4ccccc43)oc2=O)cs1,0.705,.
CCOC(=O)c1cnc(C(F)(F)F)nc1NNC(=O)c1ccccc1,0.1,0.1
CCN(C(=O)CSc1nc2ccccc2nc1C)C1CCCCC1,1.33,-0.85
CCCn1cc(SCC(=O)Nc2sc3c(c2C(=O)OCC)CCC3)c2ccccc21,-0.39,1.4
CC1CC(C)CN(C(=O)COc2ccccc2F)C1 (configuration not stated),0.11,-0.2
O=C(OCc1ccccc1)c1ccccc1C(=O)c1ccccc1,-0.47,-1
CC(C)(C)c1cn2cccc(OCc3ccc(Cl)c(Cl)c3)c2n1,3.24,-0.3
CC1CCCCN1C(=O)C1CC(c2ccc(F)cc2)=NO1 (configuration not stated),-0.63,-0.8
Cc1ccc2nc(SCC(=O)N(c3ccccc3)C(C)C)[nH]c2c1,1.1,0.6
O=C(O)C(O)C(O)c1nc2ccccc2s1 (configuration not stated),.,0.1
O=C(Nc1c(C(=O)c2ccccc2)oc2ccccc12)c1ccc(Cl)cc1,0.83,-0.5
Cn1nc(C(F)(F)F)c(COC(=O)Nc2ccc(Cl)cc2)c1Cl,0.865,.
C=CCn1c(CSc2nc3ccccc3s2)nnc1SCC(=O)NCc1cccnc1,-0.17,.

# Continuation:
SMILES,CapD inh,AID504770
N#CCCn1nnc(CCN2C(=O)c3ccccc3C2=O)n1,.,0.25
CCN(C(=O)CSc1nnc2scc(-c3cccc(OC)c3)n12)c1ccccc1,.,0.35
COc1ccc(OC)c(C2N(Cc3ccc(C)cc3)CCCN2Cc2ccc(F)cc2)c1 (configuration not stated),0.375,1.5
COCc1[nH]nc(N)c1-c1ccccc1,1.05,-0.05
CCNC(=O)c1ccc2c(c1)sc1nc(-c3ccc(OC)cc3)cn12,0.005,0.2
COCc1cc(C)nc(SCC(=O)Nc2cccc(C)c2C)c1C#N,0.155,.
Cc1cccc(C)c1N=C1NC(=O)CS1,-0.065,0.1
Nc1cc(C(=O)OCC(=O)c2csc(N3CCCCC3)n2)ccc1Cl,.,-0.55
O=C(CSc1nc(NCc2ccco2)c2ccccc2n1)c1ccccc1,0.16,.
Nc1c(C(=O)Nc2ccc(F)cc2)sc(=S)n1-c1ccco1,0.82,.
Cc1cc(C(=O)C(C)OC(=O)c2ccc(S(=O)(=O)NCc3ccco3)cc2)c(C)n1-c1ccc(Cl)cc1 (configuration not stated),.,0.45
CCOC(=O)c1cnc2n(c1=O)CCS2,-0.475,.
CC1(C)CC(=O)C(CC(=O)N2CCCCCC2)=C(O)C1,.,0.15
COC(=O)C1=NN(c2ccc(OC)cc2)C2(Nc3ccccc3S2)S1 (configuration not stated),-0.225,.
CCOC(=O)Cn1c(=O)c2ccsc2c2c(C#N)c(SC)sc21,-0.385,-0.9
COc1ccc(CCCOC(=O)N2CCC(NC(C)=O)C2)cc1 (configuration not stated),0.33,.
CC1CCCN(Cc2cc(Cl)cc(Cl)c2O)C1 (configuration not stated),0.03,-0.2
Cc1cc(-c2onc(C)c2C(=O)NNC(=O)CCCCC2CCCCC2)no1,0.76,.
CC(C)c1ccc(C2C(C#N)=C(N)C(C#N)(C#N)C3=CCN(C)CC32)cc1 (configuration not stated),8.25,-0.7
CCOC(=O)c1ccc(-n2[nH]c(C(F)(F)F)c(/C=C3\C=Nc4ccccc43)c2=O)cc1,-0.455,.
O=C(N/N=C/c1c[nH]c2cnc(OCc3ccccc3)cc12)c1cc2ccccc2cc1O,2.05,.
COc1ccc(Cl)cc1N(CC(=O)N1CCc2ccccc2C1)S(=O)(=O)c1ccc(C)c([N+](=O)[O-])c1,-0.275,.
C=CCc1c(C)[nH]c2c(OC)cccc2c1=S,.,0.85
Cc1ccc(C(=O)/C=C/Nc2ccc(F)c(Cl)c2)o1,1.22,-0.8
Clc1ccc(C2=NNC(=NCc3ccc4c(c3)OCO4)SC2)cc1,.,-0.7

# Ordered by count of non-hydrogen atoms (descending): some entries from above.
SMILES,CapD inh,AID504770
CCOc1ccccc1N/C(SCc1ccc(C)cc1C)=C(/C#N)C(=O)NCc1ccccc1,-0.29,.
O=C(N/N=C/c1c[nH]c2cnc(OCc3ccccc3)cc12)c1cc2ccccc2cc1O,2.05,.
Cc1ccc2nc(SCC(=O)N(c3ccccc3)C(C)C)[nH]c2c1,1.1,0.6
CSC(=C(C#N)C#N)N1CCN(c2ccccc2)CC1,.,-0.3

# Quoted from the listing, four compounds:
SMILES,CapD inh,AID504770
N#CCCn1nnc(CCN2C(=O)c3ccccc3C2=O)n1,.,0.25
CCN(C(=O)CSc1nnc2scc(-c3cccc(OC)c3)n12)c1ccccc1,.,0.35
COc1ccc(OC)c(C2N(Cc3ccc(C)cc3)CCCN2Cc2ccc(F)cc2)c1 (configuration not stated),0.375,1.5
COCc1[nH]nc(N)c1-c1ccccc1,1.05,-0.05

# Later entries:
SMILES,CapD inh,AID504770
CC(Sc1nncn1-c1ccccc1)C(=O)Nc1ccccc1 (configuration not stated),.,-0.25
CC(Oc1ccc(Cl)cc1Cl)C(=O)NNc1nc(Cl)nc(N(C)C)n1 (configuration not stated),.,0.25
CCOc1cc2c(cc1/C=C1/NC(=O)N(Cc3ccccc3)C1=O)OCO2,-0.33,0.4
Cc1ccc(NC(=O)c2ccc(C#N)cc2)cc1,-0.03,-1.15
COc1ccc(N(C(=O)c2ccco2)S(=O)(=O)c2ccccc2)cc1,-2.83,-0.35
CCC(=O)N1CCN(c2nc(-c3ccccc3)c3c(c2C#N)CCCC3)CC1,15.9,-0.25
COc1ccc(Br)cc1CNC(=O)c1cc2oc3ccccc3c2n1C,7.95,0.45
O=C(NCc1cccnc1)C(=O)c1c(O)[nH]c2ccccc12,-0.1,1.55
Cn1c(NCc2c(O)ccc3ccccc23)nc2ccccc21,40.1,-1.35
CCOC(=O)c1c(C)[nH]c(C(=O)CC(=O)OC)c1C,-0.165,0.3
COc1ccc(Cn2c(=S)[nH]c3cc(C(=O)Nc4ccc(OC)cc4OC)ccc3c2=O)cc1,-0.515,.
O=C(NC1CCCCC1)c1cccnc1Nc1ccccc1F,.,-0.7
CCC1(CC)Cc2ccccc2-c2nc3[nH][nH]c(=S)n3c(=O)c21,2.35,1.7
CC(C)(C)c1ccc(C(=O)NNC(=O)c2ccc(C(C)(C)C)cc2)cc1,-0.115,.
O=C(Cn1c(C(F)(F)F)nc2ccccc21)Nc1ccc(S(=O)(=O)NCc2ccco2)cc1,.,-0.5
O=C(Nc1nccs1)c1ccc([N+](=O)[O-])cc1,-0.035,.
Cc1ccc(C(=O)NCc2ccccc2F)s1,.,-0.7
O=C1OC2(c3ccccc3)C3CCCC2C13Sc1ccccc1,-0.015,-0.1
O=C(O)Cc1cc(=O)oc2c1ccc1ccccc12,38.1&56.9,0.55&-0.95
O=C(C(O)C(O)C(=O)N1CCCC1)N1CCCC1 (configuration not stated),0.485,1.9
O=C(CN1C(=O)c2cccnc2Oc2ccc(Cl)cc21)N1CCc2ccccc21,-0.03,-0.55
CC(C)C(=O)Nc1cccc(C(=O)Nc2nncs2)c1,.,-0.8
CCNC(=O)CC1C(=O)N(c2ccccc2)C(=O)N1CCC(C)C (configuration not stated),0.07,0.4
COc1cc2nc(COc3ccccc3)oc(=O)c2cc1OC,-0.545,-0.7
Cc1cc(C)c(C#N)c(SCC(O)CS(=O)(=O)Cc2ccc(Cl)cc2)n1 (configuration not stated),-0.395,.

# Later entries
SMILES,CapD inh,AID504770
COc1ccc(C)cc1S(=O)(=O)N1CCN(Cc2ccc3ccccc3n2)CC1,0.485,.
O=C1OC2(CCCC2)OC(=O)C1=Cc1ccc(Br)cc1,-0.46,0
Cn1c(=O)c2c(ncn2CCC(=O)NC2CCCCCCC2)n(C)c1=O,.,0.25
CC(C)(C)OC(=O)N(C/C=C/c1ccccc1)CCOC(=O)N1CCCC1C(=O)OCc1ccc([N+](=O)[O-])cc1 (configuration not stated),-0.345,.
COc1ccc2[nH]c3c(c2c1)CCNC3=O,22.1,.
N#Cc1c(/N=C/c2c(F)cccc2Cl)oc(-c2ccco2)c1-c1ccco1,.,0.1
COc1ccc(C2=C(Nc3ccc(C(N)=O)cc3)c3ccccc3C2=O)cc1,0.49,.
O=c1cc(CSc2ccc(Cl)cc2)nc(N2CCCCC2)[nH]1,.,1.85
O=S(=O)(Nc1ccc(C2=NCCO2)cc1)c1ccccc1,-0.005,-0.7
CCN(CC)C(=S)Nc1ccc(Cl)c(Cl)c1,0.54,0.85
CC(=O)N1CCC2(CC1)CC(=O)c1cc(OCC(=O)NCc3ccco3)ccc1O2,32.2,-0.25
Cc1noc(C)c1C(=O)O,0.325,-0.6
O=C(Nc1ccccc1C(=O)NCCCN1CCOCC1)c1ccco1,.,-1
O=c1c2ccccc2nc(SCc2nnc(-c3ccccc3)o2)n1CCc1ccccc1,-0.105,-0.65
COc1cccc(-n2c(=O)c3sccc3n(CC(=O)NCC3CCCO3)c2=O)c1 (configuration not stated),0.78,0.15
O=C(c1ccc2c(=O)n(Cc3ccc4c(c3)OCO4)c(=S)[nH]c2c1)N1CCN(c2ncccn2)CC1,0.75,.
COc1nccc(C(F)(F)F)c1C(=O)Nc1c(C)cccc1C,-0.465,-0.65
Oc1ccc(CNC2CCN(Cc3ccccc3)C2)cc1 (configuration not stated),.,-1.25
CC(C(=O)Nc1ccc(Br)c(Cl)c1)N1C(=O)C2C3C=CC(C3)C2C1=O (configuration not stated),0.235,-0.65
N/C(=N\S(=O)(=O)c1cc(C(F)(F)F)cc(C(F)(F)F)c1)c1ccncc1,-0.615,0.05
Cn1ccnc1SCC(O)c1ccccc1 (configuration not stated),-0.14,-1.2
c1ccc(C2CC(c3ccccc3)n3ncnc3N2)cc1 (configuration not stated),.,-0.65
COc1ccc(CC(C)Nc2ccc3c(c2)OCO3)cc1 (configuration not stated),7.09,-0.1
CC(Oc1ncnc2ccccc12)C(=O)Nc1cc(Cl)cc(Cl)c1 (configuration not stated),0.3,-0.05
COc1ccc2c(C)nc(N/C(N)=N/S(=O)(=O)c3ccc(C)cc3)nc2c1,-0.04,-0.35
NC(=O)c1ccc(-c2ccccc2)cc1C(N)=O,.,-0.5

# Source: PubChem (ICCB-Longwood Screening Facility, Harvard Medical School)

# Not a hit list. Share with any hit: about 0.39%.
